HPGD block: qHTS Assay for Inhibitors of HPGD (15-Hydroxyprostaglandin Dehydrogenase) | hit rate 4.3% among 150,000 | purified HPGD, NADH fluorescence kinetic, PGE2 substrate | AID 894, 2007 | Potency, µM, inactives show top-dose activity change, negative = inhibition, actives largely listed as inhibitors; active = well fitted inhibition curve with a large enough effect (not every such curve was filed as active); inconclusive = small, poorly fitted or top-dose-only effect, or another doubt; inactive = no such curve, though single readings can be large or run the other way;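 further: top concentration of the series not given in the record; plate controls included wells without enzyme; inactives centre near -10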
Target sequence (P15428 whole entry, looked up): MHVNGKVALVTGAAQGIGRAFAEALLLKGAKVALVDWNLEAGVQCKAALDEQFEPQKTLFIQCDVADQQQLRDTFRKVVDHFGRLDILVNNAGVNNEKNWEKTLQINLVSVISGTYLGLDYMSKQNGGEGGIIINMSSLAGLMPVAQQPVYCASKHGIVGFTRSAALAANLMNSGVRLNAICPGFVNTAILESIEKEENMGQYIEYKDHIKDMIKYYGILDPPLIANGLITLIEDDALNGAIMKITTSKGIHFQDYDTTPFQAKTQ
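NADH formation kinetics: reaction with 30 uM PGE2 and 1 mM NAD+ (final), 20 nM enzyme, Tris-HCl pH 8 with Tween 20, after 15 min compound preincubation at room temperature. Fluorescence change, last versus first of five reads.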
The depositor's hits bear a star. On the % scale 0 is the no-effect control and ±100 the full control effect; potency means the concentration at half of the fitted maximal effect. These rows are one share of the data. The share of hits here may be higher or lower than overall.

Results for Cc1cc(C)cc(Nc2cnn(C34CC5CC(CC(CC(=O)O)(C5)C3)C4)c(=O)c2Cl)c1 ?
HPGD block: -13%

How did COc1ccc(OCC(=O)OCC(=O)NCc2ccc(F)cc2)cc1 do in these assays?
HPGD block: -6%

How did Cc1noc(C)c1CSc1ncnc2sc3c(c12)CCC3 do in these assays?
HPGD block: -18%

Results for CC1CCCCC1NC(=O)/C(C#N)=C/c1ccccc1F (configuration not stated) ?
HPGD block: -8%

What do the screens show for `Cc1ccc(C(=O)OCn2ncc(Cl)c(Cl)c2=O)cc1`?
HPGD block: 28µM*

What do the screens show for `O=C(NCCc1c[nH]c2ccccc12)c1cc2sccc2n1Cc1ccccc1`?
HPGD block: -20%

Results for OC(c1cccnc1)c1cccs1 (configuration not stated) ?
HPGD block: -7%

Results for CCOC(=O)/C(C#N)=C1/SC(CC)C(=O)N1c1ccc(C)cc1 (configuration not stated) ?
HPGD block: -4%

Results for COC(=O)c1[nH]c(C)c(/C(O)=C2\C(=O)C(=O)N(CCN(C)C)C2c2ccco2)c1C (configuration not stated) ?
HPGD block: -26%

How did O=C(O)CCC(NC(=O)C(Cc1ccc2c(c1)OCO2)NC(=O)c1ccccc1)C(=O)O (configuration not stated) do in these assays?
HPGD block: inconclusive

What do the screens show for `C/C(=N\OCC(=O)N/N=C/c1ccc(C)cc1O)c1cccs1`?
HPGD block: -18%

How did O=C(COC(=O)C1CCN(S(=O)(=O)c2cccc3cccnc23)CC1)c1ccc([N+](=O)[O-])cc1 do in these assays?
HPGD block: -6%

What do the screens show for `CCCCN(CCCC)C(=S)NC(=O)c1ccccc1Cl`?
HPGD block: -4%

How did Cc1ccc(C(C)C)c(OCC(=O)Nn2c(C)nc3ccccc3c2=O)c1 do in these assays?
HPGD block: -5%

What do the screens show for `Cc1ccc(NC(=O)CO/N=C(\N)c2nonc2N)cc1`?
HPGD block: -7%

What do the screens show for `O=C(CSc1nc2ccccc2c(=O)n1-c1ccccc1Cl)Nc1cccc(S(=O)(=O)N2CCOCC2)c1`?
HPGD block: -6%

How did O=C1CCCc2[nH]nc(-c3cccnc3)c21 do in these assays?
HPGD block: -15%

What do the screens show for `C=CCNC(=O)c1oc2ccc(S(=O)(=O)N(CC)CC)cc2c1C`?
HPGD block: 20µM*

What do the screens show for `N#C/C(=C\c1ccc(O)c(O)c1)C(N)=O`?
HPGD block: inconclusive

Results for COc1ccc(C(=O)CN2C(=O)NC(C)(c3ccc(C)cc3)C2=O)cc1OC (configuration not stated) ?
HPGD block: -6%

Results for CNc1ccnc(-c2ccccc2CN(C)C)n1 ?
HPGD block: -8%

What do the screens show for `CC(C)(C)c1ccc(/C=C/C(=O)N2CCc3ccccc3C2)cc1`?
HPGD block: -6%

How did COC(=O)n1ccc(C(=O)Nc2ccccc2F)n1 do in these assays?
HPGD block: -6%

Results for COC(=O)CN(c1ccccn1)S(=O)(=O)c1ccccc1 ?
HPGD block: inconclusive

Results for COC(=O)N1CCC2(CCCN(Cc3nccs3)C2)CC1 ?
HPGD block: -2%

What do the screens show for `COc1cccc(N2CCN(CC(=O)c3c[nH]c4ccc(OC)cc34)CC2C)c1` (configuration not stated)?
HPGD block: inconclusive

Results for COCC(=O)Nc1sc2c(c1C(=O)OC)CCC(C)C2 (configuration not stated) ?
HPGD block: -10%

Results for Cc1ccc(CNc2oc(-c3cccs3)nc2C#N)cc1 ?
HPGD block: inconclusive

How did COc1ccc([N+](=O)[O-])cc1N(CC(=O)NCCC1=CCCCC1)S(C)(=O)=O do in these assays?
HPGD block: -8%

Results for CCOc1ccc(OCC)c(Nc2cc(C)nc3nc(C)nn23)c1 ?
HPGD block: 0.5µM*

How did CC1=CS(=O)(=O)CC1Sc1nc2ccccc2[nH]1 (configuration not stated) do in these assays?
HPGD block: -8%

How did CCn1c(C)nc2cc(C(=O)OC(C(F)(F)C(F)F)C(F)(F)C(F)F)ccc21 do in these assays?
HPGD block: -3%

Results for O=C(CCC(=O)OCC(=O)c1ccc(-c2ccccc2)cc1)Nc1cccc2cccnc12 ?
HPGD block: -20%

Results for COc1cc2c(cc1NC(=O)c1cccnc1)oc1ccccc12 ?
HPGD block: -14%

Results for O=C(CCl)Nc1ccc(N=Nc2ccccc2)cc1 ?
HPGD block: -23%

What do the screens show for `Cc1ccc2nc3sc(C(=O)NCc4ccco4)c(N)c3cc2c1`?
HPGD block: -7%

Results for O=C1C2C(C(=O)N1c1ccncc1)C1C=CC2C12CC2 (configuration not stated) ?
HPGD block: -11%

Results for Cc1ccc(S(=O)(=O)NCC(=O)N/N=C/c2ccc(Cl)cc2)cc1 ?
HPGD block: -7%

How did CCCCCCNS(=O)(=O)c1ccc(Cl)s1 do in these assays?
HPGD block: -21%

What do the screens show for `O=C(Nc1ccc(-c2nnc3n2CCCCC3)cc1)c1ccco1`?
HPGD block: 8.9µM*

How did CCOc1cc(C(=O)NCc2nnc(SCC(=O)OC)n2C)cc(OCC)c1OCC do in these assays?
HPGD block: -6%

How did O=C(Nc1ccc(SC(F)F)cc1)C1=COCCO1 do in these assays?
HPGD block: -11%

What do the screens show for `O=C(CSC1=NCCS1)Nc1nc2c(s1)CCCC2`?
HPGD block: -9%

How did CC(NC(=S)Nc1c(Br)cccc1OC(F)F)C(C)(C)C (configuration not stated) do in these assays?
HPGD block: -5%

Results for O=C(COC(=O)CSc1cc(Cl)ccc1Cl)Nc1ncc(C(F)(F)F)cc1Cl ?
HPGD block: -27%

Results for CCn1c(SCC(N)=O)nnc1-c1ccc(S(=O)(=O)N2CCN(C)CC2)cc1 ?
HPGD block: -13%

How did Cc1[nH]c2ccccc2c1C(=O)CN1CCC(C(N)=O)(N2CCCCC2)CC1 do in these assays?
HPGD block: -9%

Results for O=C(COc1ccc(Cl)cc1)NCCC1=CCCCC1 ?
HPGD block: -6%

What do the screens show for `Oc1ccc(-c2csc(NCc3ccco3)n2)cc1`?
HPGD block: -14%

What do the screens show for `O=C(/C=C/c1ccccc1)c1ccoc1`?
HPGD block: -6%

Results for Cc1ccc(C(=O)N/N=C2\CCSC2)cc1[N+](=O)[O-] ?
HPGD block: -7%

Results for NC(CCC(=O)NC(CCSC(CC(=O)O)C(=O)O)C(=O)NCC(=O)O)C(=O)O (configuration not stated) ?
HPGD block: -6%

What do the screens show for `Cc1ccccc1C(=O)N1CCc2cc(-c3nc(NC(=O)Cc4ccc5c(c4)OCO5)sc3C)ccc21`?
HPGD block: inconclusive

Results for COc1cc(OC)c(-c2nn3c(-c4ccncc4)nnc3s2)cc1OC ?
HPGD block: -10%

Results for CC1=NN(c2ccccc2)C(=O)C1C(=O)c1ccc(Cl)cc1 (configuration not stated) ?
HPGD block: 3%

Results for CCn1nc(C)c(/C=N/NC(=O)c2ccc3c(c2)c(C)c(C)n3Cc2ccccc2)c1C ?
HPGD block: -25%

What do the screens show for `CCC(C(=O)NCCC1=CCCCC1)c1ccccc1` (configuration not stated)?
HPGD block: -1%

Results for COc1cccc(-c2cc(C(F)(F)F)nc(-n3cncn3)n2)c1 ?
HPGD block: inconclusive

How did O=S(=O)(/N=C(\c1ccccc1)N1CCOCC1)c1ccc(Cl)cc1 do in these assays?
HPGD block: -5%

How did CNC(=S)NNC(=O)COc1ccccc1C do in these assays?
HPGD block: -26%

Results for O=C(COC(=O)[C@@H]1CC(O)CN1S(=O)(=O)c1ccccc1[N+](=O)[O-])Nc1ccc2ccccc2c1 (some centres not stated) ?
HPGD block: -9%

How did Cn1c(=O)cc(OCCCC(=O)NCc2ccc3c(c2)OCO3)c2ccccc21 do in these assays?
HPGD block: -5%

How did Cc1occc1-c1nnc(SCC(=O)c2cc3ccccc3oc2=O)o1 do in these assays?
HPGD block: -18%

Results for O=C(N/C(=C\c1ccco1)C(=O)N1CCCC1)c1cccs1 ?
HPGD block: -6%

What do the screens show for `NS(=O)(=O)c1ccc(NC(=O)C2COc3ccccc3O2)cc1` (configuration not stated)?
HPGD block: -3%

How did O=C(CCc1nc2ccccc2c(=O)[nH]1)OCc1ccccc1F do in these assays?
HPGD block: -2%

Results for COc1cccc(C2NC(=O)NC(O)(C(F)(F)F)C2C(=O)c2cccnc2)c1OC (configuration not stated) ?
HPGD block: 4%

How did CCc1nnc(NC(=O)C2Cc3ccccc3CN2S(=O)(=O)c2cccs2)s1 (configuration not stated) do in these assays?
HPGD block: 0%

How did C=CCNC(=O)c1ccc2nc(-c3ccccc3)c(-c3ccccc3)nc2c1 do in these assays?
HPGD block: inconclusive

What do the screens show for `O=c1cc(-c2ccco2)oc2ccc(Cl)cc12`?
HPGD block: inconclusive

Results for CC(C)n1nc(C(=O)NCCc2ccc(S(N)(=O)=O)cc2)c2ccccc2c1=O ?
HPGD block: -11%

Results for COC(=O)CN(c1ccccc1C)S(C)(=O)=O ?
HPGD block: 2%

Results for CC(C)Cn1c(=O)c2c(nc3n2CCCN3CCc2ccccc2)n(C)c1=O ?
HPGD block: -7%

Results for CC(C)(C)NC(=O)c1nc2nc(-c3ccccc3)cc(C(F)(F)F)n2n1 ?
HPGD block: inconclusive

What do the screens show for `Cc1cccc(N2CN(Cc3ccco3)CNC2=S)c1C`?
HPGD block: 4%

Results for CC1=C(C(=O)Nc2ccccc2)C(c2ccc(C(C)C)cc2)N2C(=O)CSC2=N1 (configuration not stated) ?
HPGD block: 4%

How did CC(C)CNC(=S)NC(=O)c1ccc(Cl)cc1 do in these assays?
HPGD block: -12%

What do the screens show for `Brc1cccc(-c2nnc3sc(CN4CCC5(CC4)OCCO5)cn23)c1`?
HPGD block: inconclusive

Results for Cc1cc(C(=O)CN2C(=O)c3cccc(N)c3C2=O)c(C)n1Cc1cccs1 ?
HPGD block: -27%

What do the screens show for `O=C(CCc1nc2ccccc2c(=O)[nH]1)Nc1ccc(F)cc1`?
HPGD block: -4%

Results for CN1CCC(=NNC(=O)C(=O)NCc2ccccc2)CC1 ?
HPGD block: -13%

How did C=CCn1c(SCC(=O)NC(=O)NC2CCCC2)nnc1C1CCCCC1 do in these assays?
HPGD block: 7%

What do the screens show for `Cc1noc(C)c1C(=O)Nc1ccc(F)cc1F`?
HPGD block: -8%

How did Clc1cccc(-c2ccc(/C=N/n3cnnc3)o2)c1 do in these assays?
HPGD block: inconclusive

How did COCCn1c(CN2CCC(Cc3ccccc3)CC2)nc2c1c(=O)n(C)c(=O)n2C do in these assays?
HPGD block: 1%

Results for FC(F)(F)c1ccc(Oc2ccc3ccccc3c2Br)nc1 ?
HPGD block: -15%

What do the screens show for `CC1(C)C(N(O)C(=O)Nc2ccccc2)N(c2cccc(Cl)c2)C(=O)N1O` (configuration not stated)?
HPGD block: -13%

Results for O=C(NNc1nc2ccccc2s1)C1CC1 ?
HPGD block: -6%

How did CCOC(=O)N1CCN(c2nc(C)c3c(n2)CCCC3=O)CC1 do in these assays?
HPGD block: -26%

Results for COc1ccc(C(O)(C(=O)NNc2ccc(C)cc2)c2cccs2)cc1 (configuration not stated) ?
HPGD block: -2%

How did CCC(=O)N1CC2(CC(c3cccc([N+](=O)[O-])c3)=NO2)C[C@H]1C(=O)NCC(N)=O (some centres not stated) do in these assays?
HPGD block: -14%

Results for C=CCn1c(SCc2ccc(C#N)cc2)nnc1-c1ccccc1 ?
HPGD block: -5%

What do the screens show for `Cc1ccc(C)c(-n2nnnc2SCC(=O)Nc2c(C)n(C)n(-c3ccccc3)c2=O)c1`?
HPGD block: 0%

What do the screens show for `Cc1cccc(OCc2nc(C#N)c(NCc3ccc4c(c3)OCO4)o2)c1`?
HPGD block: inconclusive

Results for O=C(Cc1csc(Nc2nc(=S)[nH]c3ccccc23)n1)NCc1ccc(Cl)cc1 ?
HPGD block: -12%

Molecules listed so far that contain a tert-butyl group (three):
What do the screens show for `CC(C)(C)c1ccc(/C=C/C(=O)N2CCc3ccccc3C2)cc1`?
HPGD block: -6%

How did CC(NC(=S)Nc1c(Br)cccc1OC(F)F)C(C)(C)C (configuration not stated) do in these assays?
HPGD block: -5%

Results for CC(C)(C)NC(=O)c1nc2nc(-c3ccccc3)cc(C(F)(F)F)n2n1 ?
HPGD block: inconclusive

Entries shown so far that have a thiophene ring, fused or not, in the order listed:
How did Cc1noc(C)c1CSc1ncnc2sc3c(c12)CCC3 do in these assays?
HPGD block: -18%

What do the screens show for `O=C(NCCc1c[nH]c2ccccc12)c1cc2sccc2n1Cc1ccccc1`?
HPGD block: -20%

Results for OC(c1cccnc1)c1cccs1 (configuration not stated) ?
HPGD block: -7%

What do the screens show for `C/C(=N\OCC(=O)N/N=C/c1ccc(C)cc1O)c1cccs1`?
HPGD block: -18%

Results for COCC(=O)Nc1sc2c(c1C(=O)OC)CCC(C)C2 (configuration not stated) ?
HPGD block: -10%

Results for Cc1ccc(CNc2oc(-c3cccs3)nc2C#N)cc1 ?
HPGD block: inconclusive

What do the screens show for `Cc1ccc2nc3sc(C(=O)NCc4ccco4)c(N)c3cc2c1`?
HPGD block: -7%

How did CCCCCCNS(=O)(=O)c1ccc(Cl)s1 do in these assays?
HPGD block: -21%

Results for O=C(N/C(=C\c1ccco1)C(=O)N1CCCC1)c1cccs1 ?
HPGD block: -6%

How did CCc1nnc(NC(=O)C2Cc3ccccc3CN2S(=O)(=O)c2cccs2)s1 (configuration not stated) do in these assays?
HPGD block: 0%

Results for Cc1cc(C(=O)CN2C(=O)c3cccc(N)c3C2=O)c(C)n1Cc1cccs1 ?
HPGD block: -27%

Results for COc1ccc(C(O)(C(=O)NNc2ccc(C)cc2)c2cccs2)cc1 (configuration not stated) ?
HPGD block: -2%
